Screens as filed in PubChem BioAssay.
PABP polyA inh – PABP poly(A) RNA binding inhibitors, primary screen, biochemical, fluorescence polarization, uHTS. Polyadenylate-binding protein 1 (Homo sapiens), P11940. inhibition, % at 35 µM. actives 1% (n = 290,000);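 active = 50% or more with normal probe brightness, or confirmed in later tests; about a fifth of its hits are not listed in these tables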;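 also: calls also rest on retests at 20 µM and on dose response follow-up; controls were probe without protein and protein plus probe with vehicle; some compounds called inactive have numbers as strong as hits; many hits fall short of the cut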
Target sequence (P11940 whole entry, looked up): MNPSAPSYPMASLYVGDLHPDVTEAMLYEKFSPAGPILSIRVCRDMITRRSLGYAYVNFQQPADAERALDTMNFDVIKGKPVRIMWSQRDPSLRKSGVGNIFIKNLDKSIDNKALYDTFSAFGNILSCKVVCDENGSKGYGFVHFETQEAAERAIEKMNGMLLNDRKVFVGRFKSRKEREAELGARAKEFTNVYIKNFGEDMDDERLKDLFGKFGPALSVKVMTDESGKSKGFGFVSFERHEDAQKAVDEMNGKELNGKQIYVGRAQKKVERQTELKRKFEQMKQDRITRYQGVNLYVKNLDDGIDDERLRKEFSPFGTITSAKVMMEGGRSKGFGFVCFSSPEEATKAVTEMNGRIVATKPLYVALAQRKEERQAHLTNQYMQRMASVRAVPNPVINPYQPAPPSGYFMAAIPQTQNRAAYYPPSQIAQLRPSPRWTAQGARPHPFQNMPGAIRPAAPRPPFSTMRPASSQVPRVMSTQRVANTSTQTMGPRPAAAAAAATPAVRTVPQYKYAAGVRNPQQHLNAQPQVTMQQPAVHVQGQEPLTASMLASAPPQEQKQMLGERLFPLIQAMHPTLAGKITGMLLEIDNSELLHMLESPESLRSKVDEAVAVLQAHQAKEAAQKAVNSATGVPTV
eIF4H inh – human eIF4H binding inhibitors, primary screen, translation initiation inhibitor project, biochemical, uHTS, fluorescence polarization; Eukaryotic translation initiation factor 4H (Homo sapiens), Q15056; eIF4H fluorescence polarization binding assay; inhibition, % at 35 µM; actives 0.94% (n = 290,000);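 active = 50% or more with normal probe brightness, or confirmed in later tests; about a fifth of its hits are not listed in these tables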;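 also: calls also rest on retests at 20 µM and on dose response follow-up; 0% = protein and probe with vehicle and 100% = probe without protein; strong numbers were not always called active; many hits fall short of the cut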
Yeast UUG start – modulators of yeast start codon fidelity, primary screen, whole organism, S. cerevisiae, single point, plate reader | S. cerevisiae UUG-firefly luciferase reporter, luminescence/redox ratio | activity score, % at 18.7 µM | actives 0.13% (n = 350,000) | AID 602363, 2012;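 active = replicate mean at a twofold rise or more, about +100% in these data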;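 also: firefly luciferase made from a UUG start codon reports start codon fidelity; reporter light over untreated wells divided by growth signal over untreated wells; some hits fall short of that in this replicate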
Rce1 inhib – yeast Rce1p protease inhibitors, primary screen, biochemical, fluorescence, cell-free homogeneous; calls only; yeast membranes, quenched prenylated peptide cleavage fluorescence; CAAX prenyl protease 2 (Saccharomyces cerevisiae (strain ATCC 204508 / S288c)), Q03530; actives 0.27% (n = 290,000);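 active = fall in fluorescence gain of 50% or more versus controls, with final raw signal at or below 3038400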;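 also: plate controls were neutral control wells for no effect and wells lacking membranes for full effect; tested at 10 µM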
Target sequence (Q03530 whole entry, looked up): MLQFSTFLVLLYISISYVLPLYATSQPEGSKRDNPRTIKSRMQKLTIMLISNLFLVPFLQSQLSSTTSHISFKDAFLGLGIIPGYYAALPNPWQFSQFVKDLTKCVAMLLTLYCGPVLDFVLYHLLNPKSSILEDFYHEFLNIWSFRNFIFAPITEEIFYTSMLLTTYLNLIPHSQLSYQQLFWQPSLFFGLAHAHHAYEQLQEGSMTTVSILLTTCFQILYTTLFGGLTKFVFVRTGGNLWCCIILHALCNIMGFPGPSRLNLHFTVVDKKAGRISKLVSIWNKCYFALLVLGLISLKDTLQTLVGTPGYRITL
CSC inhib – cancer stem cell viability inhibitors, primary screen, luminescence. cancer stem cell-like cells viability. actives 1.1% (n = 300,000). inhibition, % at 7.5 µM;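 active = mean at 75% or more and at least half the replicates too; tested in HMLE shEcad cells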;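 also: 0% = median of negative and 100% = median of positive control wells; the first replicate is given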
MT1-MMP act inh – blockers of MT1-MMP proenzyme processing, primary screen, HT1080 RFP-PRO-GFP cells, GFP/RFP fluorescence; GFP/RFP ratio fluorescence, overnight; percent of plate control window, DMSO zero; actives 0.061% (n = 360,000); GFP/RFP ratio change, % at 20 µM; Matrix metalloproteinase-14 (Homo sapiens), P50281; AID 651647, 2012;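 active = GFP/RFP ratio change of at least 30% with cell ATP level not reduced by more than half and red fluorescence within 50% of control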; also: strong numbers were not always called active
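Material: RFP-PRO-GFP reporter HT1080 cells. Dosing: single-point 20 µM compound, 1% DMSO. Controls: DMSO and RFP-L50D-GFP cell wells. Timing: cells overnight before dosing, compound overnight, 37 °C, 5% CO2. Measure: GFP/RFP fluorescence ratio.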
Env fusion inh – inhibitors of HIV-1 Env-driven cell-cell fusion, primary screen, HeLa-JRFL effector, CEM21 target cells, luciferase | inhibition, % at 12.3 µM | actives 1.1% (n = 360,000) | AID 651610, 2012;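 active = mean replicate inhibition score of at least 50 and every replicate individually at or above 50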;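 also: 0% = plate neutral controls and 100% = maraviroc near 300 nM; one replicate is shown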
MT1-MMP act inh RFP – second read-out of MT1-MMP act inh, no call of its own (marks repeat the call); RFP signal change, %; measured here: RFP expression control read;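 0 = vehicle wells; hits needed this value within 50% of zero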
* marks the source's active call; other numbers are inactive results; i = inactive; x = not tested or not shown.

no.	smiles	PABP polyA inh	eIF4H inh	Yeast UUG start	Rce1 inhib	CSC inhib	MT1-MMP act inh	MT1-MMP act inh RFP	Env fusion inh
1	O=C(COC(=O)c1cc(=O)[nH]c(=O)[nH]1)Nc1cccc(S(=O)(=O)N2CCCCC2)c1	3	-11	-12	i	-2	1	4	1
2	CCOC(=O)c1ccccc1NC(=O)CC(C)CC(=O)O (configuration not stated)	1	4	-17	i	-2	-1	5	x
3	Cc1cc(C)c2nc(N3CCC(C(=O)NCc4ccccn4)CC3)sc2c1	1	3	-13	i	-11	2	1	5
4	CCN1C(=O)C(O)(CC(=O)c2cccc(-n3cccc3)c2)c2ccccc21 (configuration not stated)	-4	-5	9	i	7	0	1	-12
5	CCN(C(=O)CN1C(=O)S/C(=C\c2ccccc2Cl)C1=O)C1CCS(=O)(=O)C1 (configuration not stated)	x	x	-12	x	x	-2	-7	7
6	COC(=O)C1=C(N)Oc2cc(C)[nH]c(=O)c2C1c1ccncc1 (configuration not stated)	5	1	-11	i	-4	6	5	x
7	O=C(C[C@H]1C/C=C\CC[C@H](Cc2ccc(F)cc2)C(=O)OCCNC1=O)NCCO	x	x	1	x	-2	1	2	0
8	COc1cccc(-n2c(=O)c3ccccc3n3c(=S)[nH]nc23)c1	0	-24	-28	i	-2	1	3	-5
9	CO/N=C/c1ccc(Sc2ccccc2N)c([N+](=O)[O-])c1	4	-12	-12	i	5	-1	0	x
10	C#CCOCCOCCOCCNc1nc(N2CCN(C(=O)[C@H]([C@@H](C)CC)n3cc(CCCCN)nn3)CC2)nc(N2CCN(C(=O)[C@H](C)n3cc(CCCN=C(N)N)nn3)CC2)n1	x	x	-21	x	-2	5	-1	-12
11	CCCCOC(=O)N1CCOCCOCCN(C(=O)OCCCC)CCOCCOCC1	-5	-4	14	i	5	10	-1	x
12	O=[N+]([O-])c1cccc(-c2nnc(C34CC5CC(CC(C5)C3)C4)o2)c1	11	-7	x	i	-10	1	1	26
13	CCN(CC)CCSC(=O)C(c1ccccc1)c1ccccc1	x	x	-15	x	x	2	2	i
14	CC1(c2nnc(Cc3ccccc3)o2)CC(c2cccnc2)=NO1 (configuration not stated)	x	x	-7	i	-17	-2	4	-18
15	Oc1ccc(C2CNCc3sccc32)cc1O (configuration not stated)	x	x	-14	x	-5	0	-3	-7
16	Cc1cccc(NC(=O)COc2cccc3c2CCN(C)C3=O)c1C	6	8	x	i	-5	5	-6	23
17	CCc1ccc(Nc2ncc3c(n2)CC(C)CC3=O)cc1 (configuration not stated)	-15	-1	x	i	-3	-1	-1	-32
18	COc1ccc(-c2cnc(C(O)c3ccc(-c4ccccc4)cc3)[nH]2)cc1 (configuration not stated)	x	x	-27	x	x	7	-3	7
19	c1cncc(CSc2nnc(-c3cccnc3)n2Cc2ccco2)c1	2	-2	x	i	x	x	x	-5
20	c1ccc(-c2cnnc(SCc3cn4cccnc4n3)n2)cc1	10	-12	x	i	8	3	1	x

Two successive records from above, for reference:
no.	smiles	PABP polyA inh	eIF4H inh	Yeast UUG start	Rce1 inhib	CSC inhib	MT1-MMP act inh	MT1-MMP act inh RFP	Env fusion inh
1	O=C(COC(=O)c1cc(=O)[nH]c(=O)[nH]1)Nc1cccc(S(=O)(=O)N2CCCCC2)c1	3	-11	-12	i	-2	1	4	1
2	CCOC(=O)c1ccccc1NC(=O)CC(C)CC(=O)O (configuration not stated)	1	4	-17	i	-2	-1	5	x

(cont.)
no.	smiles	PABP polyA inh	eIF4H inh	Yeast UUG start	Rce1 inhib	CSC inhib	MT1-MMP act inh	MT1-MMP act inh RFP	Env fusion inh
21	O=C1CN(C(=O)c2ccc(F)cc2)c2ccccc2N1	0	-13	-3	i	-3	-2	-1	11
22	Cc1ccc(S(=O)(=O)Nc2ccc(N3CCOCC3)cc2)cc1	-7	-5	-3	i	x	3	1	x
23	COc1ccc(CN2CCN(Cc3c[nH]c4ccccc34)CC2CCO)cc1C (configuration not stated)	-1	-3	-9	i	1	x	x	3
24	CCOC(=O)C1CCN(S(=O)(=O)c2ccc3c(c2)CCN3C(C)=O)CC1	6	0	-1	i	-8	2	-6	-1
25	NC(=O)CSc1nc(-c2ccccc2)nc2ccccc12	-2	3	-11	i	-22	-6	-7	3
26	CC(=O)Nc1ccc2c(c1)Cc1c-2cc(Br)c(N)c1Br	x	x	-16	x	x	4	3	-17
27	OC(c1ccc(Cl)c(F)c1)c1ncc(-c2cccc(F)c2)[nH]1 (configuration not stated)	x	x	-10	x	x	4	-3	-9
28	CC1=NN(C(=O)c2csc(C)c2C)C(O)(C(F)(F)F)C1 (configuration not stated)	5	2	x	i	-6	-4	9	-4
29	CCN(CC)c1ccc(/C=N/n2c(C)cc(C)cc2=O)cc1	1	0	-6	i	x	0	-1	-139
30	Cc1ccc(S(=O)(=O)N2CCN(C(=O)COC(=O)c3ccc(Cl)nc3)CC2)c(C)c1	x	x	5	x	x	-3	-4	-3
31	O=C1C(Cl)=C(NCCCN2CCOCC2)C(=O)N1CCc1ccccc1	-4	0	x	i	-13	1	3	29
32	CCCCCn1c(=NC(=O)c2cccnc2)c(C#N)cc2c(=O)n3cccc(C)c3nc21	x	x	x	i	44	0	-2	6
33	O=C(N/N=C/c1ccccn1)c1cc(Br)ccc1O	-1	9	-18	i	1	5	0	3
34	CCc1ccccc1NC(=O)c1ccc(S(=O)(=O)N2CCCC2)cc1	5	3	-8	i	1	1	2	-1
35	Cc1ccc(NC(=O)c2cc3c(s2)CCC3)cc1S(=O)(=O)N1CCOCC1	-4	-6	-15	i	-11	-1	-17	58*
36	CCCCOc1ccc(C(=O)Oc2cc(C)[nH]c(=O)c2[N+](=O)[O-])cc1	10	11	-13	i	-1	-1	-1	-2
37	Cc1cccc(/N=C/c2ccccn2)n1	x	x	x	i	8	-2	2	3
38	O=C(N/C(=C/c1cccc([N+](=O)[O-])c1)C(=O)N1CCCCCC1)c1cccs1	15	-6	17	i	-13	1	5	17
39	CC(C)OCCCNC(=O)Nc1cccc2ccccc12	0	0	x	i	-10	0	-2	20
40	COc1ccccc1Nc1ncnc2c1cnn2-c1cccc(C)c1	-4	-2	-12	i	7	-3	2	-53
41	COc1cc2c(cc1OC)CN(C(=S)Nc1ccccc1Cl)CC2	-11	6	x	i	15	5	2	5
42	Cc1cc(C(=O)NP(=O)(N2CCOCC2)N2CCOCC2)c(C)n1-c1ccc(Br)cc1	-2	-2	x	i	16	-5	-2	-16
43	Cc1ccc(NC(=O)CCSc2nnc3ccccn23)cc1	-6	-4	-26	i	0	1	-1	x
44	CC(=O)Nc1nc2ccccc2[nH]1	0	4	-4	i	-4	-1	3	-1
45	COc1ccc(-c2oc3ccc(N4CCOCC4)cc3c2C#CC2(O)CCCCC2)cc1	x	x	-7	i	14	11	-3	-19
46	COC(=O)c1ccc2nc(-c3cccc(Cl)c3)c(Cc3ccsc3)n2c1	x	x	-17	x	x	-3	-7	20
47	COc1ccc(N2CCN(C(=O)CCc3ccc(S(=O)(=O)NCC(C)C)cc3)CC2)cc1	-14	-4	-9	i	-4	1	-16	x
48	CC(C)c1nnc(SCC(=O)N2CCc3ccccc32)n1N	11	-4	x	i	-7	0	-1	2
49	N#CCC(=O)N/N=C/c1ccccc1Cl	1	6	x	i	-6	2	6	-23
50	COc1cc(CNCCCCO)ccc1OCc1ccccc1F	-9	-5	-3	i	7	1	4	-8
51	c1coc(-c2cc(C3CCNCC3)[nH]n2)c1	4	1	x	i	-11	0	1	-24
52	CC(NC(=O)c1cccs1)C(c1cccs1)N1CCN(Cc2ccccc2)CC1 (configuration not stated)	-8	1	-8	i	x	1	-4	x
53	COC(=O)C1=C(CN2CCc3ccccc32)NC(=O)NC1c1cc(C)ccc1C (configuration not stated)	8	-6	-9	i	16	18	13	x
54	COC(=O)C1=C(C)N(C)C(=O)NC1c1cc(Cl)cc(Cl)c1OC (configuration not stated)	8	-2	x	i	-18	1	-2	x
55	C[C@H](NC(=O)c1cccc([N+](=O)[O-])c1)C(=O)OCC(=O)c1ccccc1Br	x	x	-15	x	-20	4	4	x
56	O=C(NC1CCCCC1)C(c1ccco1)N(C(=O)c1csnn1)c1cccc(F)c1 (configuration not stated)	7	0	-16	i	6	1	3	14
57	Cc1cccc(OCC(=O)NCCNC(=O)c2ccncc2)c1	5	-6	-5	i	x	2	6	-29
58	CC(C)(C)C1=CC(O)(c2ccccc2)C=C(C(C)(C)C)C1=O	11	5	-12	i	15	-11	-6	26
59	CC1CCC2(CC1)NC(=O)N(NC(=O)c1ccc(OC(C)C)cc1)C2=O (configuration not stated)	x	x	-14	x	x	8	3	-5
60	CC(C)C[C@H]1COc2cc(Br)ccc2S(=O)(=O)N1	x	x	-6	x	x	4	-2	17
61	CC1Oc2ccccc2N(CC(=O)Nc2ccccc2F)C1=O (configuration not stated)	3	1	-17	i	0	0	2	8
62	Cc1cc(C)n(-c2nc3nonc3nc2-n2nc(C)cc2C)n1	9	-5	-5	i	-4	0	4	x
63	CCCN(C(=O)c1ccc([N+](=O)[O-])c(C)c1)c1c(N)n(Cc2ccccc2)c(=O)[nH]c1=O	x	x	-11	x	-2	-5	1	8
64	CCC(=O)Nc1ccc(-c2csc(C)n2)cc1	0	1	-17	i	-5	4	5	-25
65	CC12CCC(=O)N1C(C(=O)NCCN1C(=O)S/C(=C\c3ccc(F)cc3)C1=O)CS2 (configuration not stated)	x	x	x	i	-17	-3	-2	-5
66	CONC(=O)C1CCN(C(=O)OCc2ccccc2)CC1	-9	-11	6	i	-13	1	3	x
67	N#CC(=C(O)CN1CCN(c2ccccc2F)CC1)c1nc(-c2ccc(Cl)cc2)cs1	x	x	-27	x	x	7	-17	15
68	CNC(=O)c1c(NC(NC(=O)c2ccco2)C(=O)c2ccc(Cl)cc2)sc2c1CCCC2 (configuration not stated)	4	5	x	i	x	-3	1	x
69	CCC(C(=O)OCC(=O)N(CC)c1c(N)n(Cc2ccccc2)c(=O)[nH]c1=O)c1ccccc1 (configuration not stated)	x	x	-4	x	3	-3	0	1
70	C=CC[C@H](CC(=O)N(CCO)Cc1ccccc1)C(=O)N[C@H](COC(=O)[C@@H](CC=C)CC(=O)OC(C)(C)C)Cc1ccccc1	x	x	-9	x	-6	-24	-24	19
71	Cc1ccc(C(=O)N2CCN(c3ccc([N+](=O)[O-])c(NCc4cccnc4)c3)CC2)cc1	-3	7	x	i	-13	3	-6	4
72	COc1ccc(N(CC(=O)NCc2ccccc2OC)S(=O)(=O)c2c(C)nn(C)c2C)cc1	-8	-2	-11	i	x	11	0	-30
73	COc1ccc(C(=O)N2CCN(c3ccc(C(C)=O)cc3F)CC2)cc1S(=O)(=O)NC1CC1	x	x	3	x	2	2	3	10
74	O=C(O)CSc1nc2ccccc2o1	-2	0	-24	i	-17	2	0	-8
75	O=C(Cn1nnc(-c2ccccc2Cl)n1)NCc1ccc2c(c1)OCO2	1	-9	-10	i	-7	-2	0	x
76	Cc1cc(=O)n2nc(N3CCC(C(=O)N4CCN(C)CC4)CC3)sc2n1	-9	-1	-15	i	0	4	3	x
77	COc1ccc(-c2cc(C(=O)NC3CCCCC3)no2)cc1OC	1	-9	-5	i	-2	2	5	4
78	O=C(CC12CC3CC(CC(C3)C1)C2)NC1CC1	x	x	x	i	23	-1	-1	14
79	CCN(CC(=O)Nc1ccccc1C(F)(F)F)C(=O)c1cc(S(=O)(=O)N2CCCCCC2)ccc1OC	x	x	12	i	-10	3	1	10
80	CCN(C(=O)c1cc2cc(OC)ccc2oc1=O)c1ccccc1	-12	-8	-12	i	-12	2	-3	-71
